Screens as filed in PubChem.
GALR2 agonist: agonists of human galanin receptor 2 (GALR2). GALR2-expressing cells, agonist activation read-out. O43603. 140,000 compounds, 0.48% hits. activation, %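 (tested at 5 µM)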;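 active = above mean plus 3 SD of all compounds, about 5% in these data, not always enough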;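 note: 0% = vehicle buffer wells and 100% = reference agonist at full effect; tested in CHO reporter cells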
Target sequence (O43603 whole entry, looked up): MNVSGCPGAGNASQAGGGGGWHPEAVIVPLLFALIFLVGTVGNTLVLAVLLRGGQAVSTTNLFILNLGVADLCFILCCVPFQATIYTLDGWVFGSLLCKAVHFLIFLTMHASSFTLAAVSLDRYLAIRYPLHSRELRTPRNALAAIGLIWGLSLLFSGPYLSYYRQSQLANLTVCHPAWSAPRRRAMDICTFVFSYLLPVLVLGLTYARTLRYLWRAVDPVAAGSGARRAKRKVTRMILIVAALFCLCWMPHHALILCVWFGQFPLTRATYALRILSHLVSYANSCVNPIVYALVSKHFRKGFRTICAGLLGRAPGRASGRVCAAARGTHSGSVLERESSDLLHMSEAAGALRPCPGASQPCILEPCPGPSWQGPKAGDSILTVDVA
PKD1 inh: inhibitors of human PKD1 kinase. PKD1 kinase fluorescence polarization assay. Q15139. inhibition, %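 (about 10 µM by stock and volumes)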. AID 797. 200,000 compounds, 0.056% hits;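 active = inhibition of 50% or more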;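 note: controls were vehicle for no effect and a reference inhibitor for full effect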
HSV replic up: HSV replication enhancement; maximum fold increase; HSV replication augmentation in cells, fold increase; AID 1956; 220,000 compounds, 0.005% hits;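 active = peak rise of 1.5-fold or more in the series; tested in PC3 cells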;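 note: first round at 10 µM; read as green reporter fluorescence; hits show the peak of a series up to 25 µM; 1 = signal of infected wells without compound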
Insulin prom inh: TRM-6 insulin promoter activity inhibition. TRM-6 cells (human fetal islet line), insulin promoter-eGFP reporter, imaging; reporter expression induced with tamoxifen. inhibition, % at 2 µM. 130,000 compounds, 0.9% hits;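 active = inhibition above the mean plus 3 SD, with well images judged a real hit on visual review, cut at about 60% in these data, passing the limit was not always enough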
RGS16-Gao: modulates binding between human RGS16 and Galphao; O15492+P09471; binding response (% of control), % at 10 µM; AID 1441; bead-based flow cytometry RGS16-Galphao binding, fluorescence; actives lie on both sides; 220,000 compounds, 0.38% hits;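 active = below 25% or above 175%, edge rows of some plates excepted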;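 note: Galphao activated by GDP with aluminum fluoride before binding; 100% = wells without compound and 0% = beads without RGS; some results beyond the cut were filed as inactive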
Target sequence (O15492 whole entry, looked up): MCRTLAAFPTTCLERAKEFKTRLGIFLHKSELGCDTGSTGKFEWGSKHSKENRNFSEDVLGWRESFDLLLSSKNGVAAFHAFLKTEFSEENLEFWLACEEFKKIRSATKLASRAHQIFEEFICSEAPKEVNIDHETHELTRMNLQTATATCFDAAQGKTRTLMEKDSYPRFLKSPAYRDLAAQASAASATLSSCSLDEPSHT
Target sequence (P09471 whole entry, looked up): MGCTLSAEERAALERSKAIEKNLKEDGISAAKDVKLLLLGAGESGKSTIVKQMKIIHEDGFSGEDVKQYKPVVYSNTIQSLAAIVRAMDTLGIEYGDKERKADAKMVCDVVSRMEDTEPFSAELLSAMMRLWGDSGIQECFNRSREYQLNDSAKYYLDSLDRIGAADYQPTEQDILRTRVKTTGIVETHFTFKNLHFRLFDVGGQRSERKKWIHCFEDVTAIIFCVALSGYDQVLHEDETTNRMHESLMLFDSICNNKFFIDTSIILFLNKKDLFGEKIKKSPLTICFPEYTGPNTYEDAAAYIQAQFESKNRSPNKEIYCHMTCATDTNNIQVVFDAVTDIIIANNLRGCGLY
Insulin prom inh cell count: further read-out of Insulin prom inh, marked with its call; normalized cell count, %; measured here: cell count, toxicity; reference of the scale not given here;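 cells exposed to compound for 48 h; stained nuclei by imaging scaled within each plate; lower means fewer cells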
HSV replic up primary fold: further read-out of HSV replic up, marked with its call; fold increase; compound at 10 µM; measured here: primary screen fold increase 10 uM; tested in PC3 cells;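 GFP signal in the first replicate; 1 = infected wells without compound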
* hit, by the source's call; i = inactive; . = no result given.

structure	RGS16-Gao	GALR2 agonist	Insulin prom inh	HSV replic up	PKD1 inh	HSV replic up primary fold	Insulin prom inh cell count
O=C(/C=C/c1ccccc1Cl)N(Cc1ccccc1)C1CCS(=O)(=O)C1 (configuration not stated)	110	-0.9	.	i	-1	1.2	.
CC(C)CCN1CN(S(=O)(=O)c2cccs2)c2nc3ccccc3nc21	101	-1.6	-9	i	95*	1	173
CCN(Cc1ccccc1)C(=O)CSc1nc(C)cc2c1C(=O)OC2	112	-0.2	-21	i	-4	1	121
CC(C)[C@H](NC(=O)c1cccc(S(=O)(=O)N2CCOCC2)c1)C(=O)Nc1nccs1	88	.	.	i	-4	0.83	.
CCOC(=O)CSC(CC)C(=O)Nc1nnc(C(C)C)s1 (configuration not stated)	102	-3.7	.	i	-7	0.84	.
Cc1ccc(S(=O)(=O)N2CCCC2C(=O)Nc2nc3c(s2)CCCC3)cc1 (configuration not stated)	100	-3.7	-84	i	8	0.78	79
Nc1[nH]ncc1-c1ccc(Cl)cc1	114	.	-22	i	3	1.1	64
COc1ccc(O)c(C(=O)c2cc(SCC(=O)O)c3nc4sc5c(c4c(=O)n3c2)CCCC5)c1	102	.	.	i	.	0.96	.
Cc1nc2ccccc2nc1N1CCC(C)CC1	74	-1.2	-18	i	-8	0.98	105
Cc1cccc(-n2c(CCCN3C(=O)c4ccccc4C3=O)nc3ccccc3c2=O)n1	81	-0.3	.	.	-11	.	.
O=C(O)c1nn2c(C(F)(F)F)cc(-c3cccs3)nc2c1Cl	96	0.4	.	i	0	0.92	.
Cc1ccc(NC(=O)c2oc3ccc(S(=O)(=O)N4CCOCC4)cc3c2C)cc1C	102	-0.1	-17	i	2	1	81
CCOC(=O)C1=C(CSc2nc3ccccc3s2)NC(=O)NC1c1cccc([N+](=O)[O-])c1 (configuration not stated)	100	-1.6	.	i	6	0.55	.
COc1ccc(C=O)cc1COc1ccc(F)cc1F	119	-1.2	-3	i	3	0.8	82
Cc1nnc(SCC2=C(C(=O)O)N3C(=O)C(NC(=O)Cn4ncc(Cl)c4C)C3SC2)s1 (configuration not stated)	94	.	.	i	-6	0.83	.
Cc1nc(S(=O)(=O)Cc2ccccc2)nc2c1CCC2	102	.	43	i	7	0.94	124
CC(=O)Nc1cc2c(cc1C(=O)c1ccccc1)OCCO2	104	-1.9	.	.	8	.	.
CCCSc1nnc(NC(=O)Nc2ccc(F)cc2)s1	112	0.2	.	i	-3	0.94	.
CCOc1ccc(OCC)c(NC(=O)CSc2nc3c(c(=O)n(C)c(=O)n3C)n2C(C)C)c1	112	-0.1	.	i	-4	1.1	.
Cc1ccc(NC(=S)N2CCCC(O)C2)cc1 (configuration not stated)	102	.	.	i	-1	0.91	.
COc1ccccc1/C=N/n1c(N)c(S(=O)(=O)c2cccs2)c2nc3ccccc3nc21	102	-2.1	-32	i	-3	0.69	110
c1ccc(-c2nnc(-c3ccccn3)nc2NC2CCCCC2)cc1	96	-2.5	-364	i	-4	0.5	48
O=C(Nc1cccc(OC(=O)c2ccco2)c1)c1ccco1	93	-1.5	.	i	15	0.89	.
Cn1c(SCC(=O)N=Nc2c(O)[nH]c3ccccc23)nc2ccccc21	104	-1.8	26	i	6	1.1	136
CN(CCC(=O)Nc1ccc(Br)cc1)Cc1ccccc1	101	0.2	34	i	3	0.82	104
N#CC1=C(SCC(=O)NC23CC4CC(CC(C4)C2)C3)NC(=O)C(C#N)C12CCCCC2 (configuration not stated)	102	-1.0	43	i	-9	0.78	141
CCOc1ccc(OCc2ccc(C(=O)N(CC)CC)cc2)cc1	99	.	.	i	-5	0.96	.
Cc1cc(Cl)ccc1OCC(=O)N1C(C)CCCC1C (configuration not stated)	71	-1.5	-122	i	3	1	109
O=C(Nc1ccccc1)C1Cc2ccccc2CN1C(=O)c1ccco1 (configuration not stated)	95	0.0	-7	i	-5	1	168
Cc1cc(C)n2nc(C(=O)N/N=C/c3ccccc3C)nc2n1	94	.	.	i	.	0.86	.
CNc1cccc2c1C(=O)c1ccccc1C2=O	93	-0.4	.	i	7	0.92	.
O=C(Cc1cccc2ccccc12)Nc1ccc2oc(-c3ccccc3)nc2c1	106	1.6	.	i	-7	0.91	.
CC1(C)Cc2c(sc(NC(=O)C3CC(Cl)=CCC3C(=O)O)c2C#N)CO1 (configuration not stated)	106	.	.	i	-4	0.93	.
CC(C)C(=O)c1ccc(O)c(O)c1	91	.	.	i	.	0.91	.
COc1ccc(CN2CCN(C(=O)c3cccs3)CC2)c(OC)c1OC	214	-2.2	.	i	-10	1	.
CC(C)(C)NC(=O)Cn1ccc(=N)c2ccccc21	66	-3.8	.	i	-7	1	.
C[C@@]12CCC=C[C@H]1[C@H](c1ccc3ccccc3c1)N(Cc1ccccc1)C2=O	114	.	.	i	.	0.67	.
OCc1ccnc2c(O)cccc12	93	-2.6	.	i	9	0.92	.
CN(Cc1ccco1)C(=O)c1ccc(N2CCCC2=O)cc1	103	-1.0	.	i	-5	0.83	.
O=C(OCc1nc2ccccc2[nH]1)C1CCCCC1	114	-1.2	-59	i	-4	0.92	34
O=C(/C=C/c1cccc(Cl)c1)NCCN1CCOCC1	101	-0.1	59	i	-3	1	84
Fc1ccc(-c2nc3cnccn3c2NC2CCCC2)cc1	105	.	-23	i	1	1	82
Cc1cc(N2CCC3(CC2)OCCO3)n2nc(C)c(-c3ccc(Cl)cc3)c2n1	.	-0.7	70	.	8	.	69
CCN(CC)S(=O)(=O)c1cccc(NC(=O)CNC2CCCCCC2)c1	94	.	.	i	.	0.77	.
C/C=C/c1ccc(OCCCNC2CCCC2)c(OC)c1	116	-1.8	-214	i	-11	1	116
CN1CCN(c2ccc(C(=O)c3ccccc3)cc2[N+](=O)[O-])CC1	114	-0.8	67*	i	5	0.87	92*
CCn1c(C(C)NC(=O)c2cccc(C)c2)nc2ccccc21 (configuration not stated)	102	-2.8	.	i	-8	0.92	.
CCOc1ccc(N=C2NC(=O)C(CC(=O)O)S2)cc1 (configuration not stated)	99	-1.7	-54	i	-5	1.1	106

In another format: results already given.
COc1ccc(CN2CCN(C(=O)c3cccs3)CC2)c(OC)c1OC
- RGS16-Gao: 214
- GALR2 agonist: -2.2
- Insulin prom inh: .
- HSV replic up: i
- PKD1 inh: -10
- HSV replic up primary fold: 1
- Insulin prom inh cell count: .
COc1ccc(C=O)cc1COc1ccc(F)cc1F
- RGS16-Gao: 119
- GALR2 agonist: -1.2
- Insulin prom inh: -3
- HSV replic up: i
- PKD1 inh: 3
- HSV replic up primary fold: 0.8
- Insulin prom inh cell count: 82

Following part.
structure	RGS16-Gao	GALR2 agonist	Insulin prom inh	HSV replic up	PKD1 inh	HSV replic up primary fold	Insulin prom inh cell count
O=C(C1CCN(C2CC(=O)N(c3ccc(Cl)cc3)C2=O)CC1)N1CCOCC1 (configuration not stated)	94	-1.6	48	i	-9	0.94	40
CNC(=O)CCC(=O)Nc1ccc(C)cc1	97	.	-50	i	1	1	114
CC(C)OCCCNC(=O)c1ccc2c(=O)n(Cc3ccc4c(c3)OCO4)c(=S)[nH]c2c1	126	.	20	i	-4	1	55
O=C(CSc1c(F)c(F)cc(F)c1F)Nc1ccc(C2SCCS2)cc1	104	.	.	i	.	1.1	.
COc1cc(C=Nc2cccc(C)c2)c(O)c([N+](=O)[O-])c1	110	-1.0	8	i	-9	1.1	61
COCc1cc(C)nc(SCC(=O)Nc2ccc(C)c(C)c2)c1C#N	-63*	0.1	.	i	-3	1.1	.
CCCSC1=C(C#N)C(c2cc(OC)ccc2OC)CC(=O)N1 (configuration not stated)	103	-0.6	-43	i	5	1	56
CC[C@H](C)/C=C(C)/C=C/C1=CC2=CC(=O)[C@]3(C)OC(=O)[C@@H](C(C)=O)[C@@H]3C2=CO1	99	.	.	i	11	0.95	.
Cc1ccc(SCC(=O)NC(=O)NCc2ccco2)cc1C	100	-0.6	10	i	1	0.97	89
O=C1CCCC(O)=C1N=Nc1c(Cl)cc(C(F)(F)F)cc1Cl	105	.	.	i	.	1.1	.
Cc1ccc(O)c(NC(=O)c2noc3c2CCc2ccccc2-3)c1	105	.	-38	i	0	0.93	72
Cc1ccc(NC(=O)c2cc(N3C(=O)C=CC3=O)ccc2N2CCOCC2)cc1	93	.	.	i	-5	0.72	.
O=C1NC2c3ccccc3C(=O)N2c2c1cnn2-c1ccccc1 (configuration not stated)	101	0.0	5	i	-14	0.8	152
Cc1ccc(O)c(C(=O)c2cc(C#N)c(=O)n(Cc3ccccc3)c2)c1	102	.	20	i	2	1.1	90
COc1ccc(C2CC(=O)N(CC(=O)NCC3CCCO3)c3ccccc3S2)cc1OC (configuration not stated)	107	.	-21	i	-3	0.94	139
Cc1csc(NC(=O)CSc2ccc(-c3ccc(F)cc3)nn2)n1	99	.	11	i	-7	0.87	118
CCn1c(CNc2ccc(F)cc2)nnc1SCC(=O)Nc1ccc(OC)cc1OC	100	-0.5	-14	i	-10	0.78	126
Cn1nc(C(F)(F)F)c(C(=O)Nc2ccc(F)cc2F)c1Oc1cccc(Cl)c1	101	-1.4	-4	i	-2	1	131
COc1ccccc1Oc1ccc2c(c1)C(=O)N(CC1CCCO1)C2=O (configuration not stated)	103	.	.	i	.	1.1	.
CC(C)Cc1n[nH]c(=O)[nH]1	96	-0.5	-50	i	-3	0.96	123
CSc1nc(N(C)NC(=O)c2ccc(F)cc2)c2ccccc2n1	102	-3.3	-90	i	-11	0.75	15
CC(C)CN(CC(C)C)C1=N/C(=C\c2ccco2)C(=O)N1c1ccccc1	92	6.5	.	i	0	1.2	.
O=C(Nc1ccc(Cl)cc1C(F)(F)F)c1ccccc1Cl	101	-0.6	.	i	-2	0.91	.
O=c1cc(-c2ccccc2)nc2nc(-c3ccccc3)[nH]n12	97	-2.0	3	i	0	1.1	95
O=C(CNC(=O)C1CCCCC1)NC1=NCCS1	165	-1.4	.	i	-5	0.83	.
Cc1ccc(CSCCNC(=O)CN2C(=O)c3ccccc3S2(=O)=O)cc1	102	-1.9	56	i	3	0.64	166
COc1ccccc1Cn1c(=O)c2ccccc2n2c(SCc3csc(C)n3)nnc12	107	-0.4	.	i	0	0.72	.
O=C(NNS(=O)(=O)c1ccccc1F)c1cc(-c2ccccc2)n[nH]1	101	.	.	i	.	0.91	.
Cc1ncsc1CCOC(=O)c1cccc([N+](=O)[O-])c1	110	-0.7	22	i	1	0.97	118
Cc1cc(CNC(=O)COc2ccc(C)c(C)c2)c2ccccc2n1	103	.	-71	i	5	1	128
COc1cc2c(cc1OC)C(CCc1ccccc1)=NCC2	108	.	.	i	.	1	.
O=C1c2ccccc2NC(c2ccccn2)N1c1ccccc1F (configuration not stated)	80	-3.3	3	i	1	0.83	121
Nc1cc(S(=O)(=O)Nc2ccccc2Cl)ccc1N1CCCC1	100	.	.	i	.	1.1	.
CSc1ccc(C#N)cc1NC(=O)c1cccc(Cl)c1	99	-0.3	32	i	-4	1.1	130
Cc1cccc(OCC(=O)Nc2ccc(N3CCN(S(C)(=O)=O)CC3)cc2)c1C	107	-1.4	-7	i	6	0.84	173
O=C(CN(CC1CCCO1)S(=O)(=O)c1ccc(S(=O)(=O)NCC2CCCO2)cc1)Nc1ccccc1 (configuration not stated)	96	-0.7	-31	i	-5	1.6	163
O=C(CSc1nnc(CCCO)n1-c1ccccc1)Nc1nccs1	99	-1.4	.	i	6	1.2	.
CCCCn1c(SCC(=O)Nc2cccc(OC)c2)nc2ccc(N3CCOCC3)cc2c1=O	99	-0.2	.	i	-1	0.76	.
Cc1cc(-c2nnco2)c(C)n1-c1ccccc1	97	-4.5	.	i	-6	1	.
Cc1cc(=O)[nH]c(-c2ccccc2OC(F)(F)F)n1	108	.	.	i	.	0.94	.
O=C(NCc1ccncc1)C(=O)N/N=C/c1cccnc1	111	.	.	i	3	1.1	.
CCC(=O)Nc1ccc(-c2nc(-c3ccccc3)n(CC(=O)N3CCCCC3)n2)cc1	99	-1.7	-23	i	-2	0.94	153
O=C(CCCSc1nc(-c2ccco2)cc(C(F)(F)F)n1)NCc1cccs1	102	-1.1	7	i	-2	1	126
